A1 inh: inhibitors of the anti-apoptotic protein A1, read as caspase activation. MEF A1-2A-BIM cells, Caspase-Glo 3/7 luminescence, 3 h; percent of clofoctol response, vehicle zero. caspase activation, % (concentration not given with the values). 0.066% of 330,000 active. AID 2462;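 active = over half of replicate activation scores above 10%, or exactly half above 10 with the replicate mean above 10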;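 also: wells of about 30 µL received 50 nL stock; many hits fall short of the cut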
Beta2AR agonist: activates human beta-2 adrenergic receptor causing internalization. P07550. Am2.2-beta2AR cells, FAP receptor internalization, flow cytometry; reference of the scale not given here. response, % (concentration not given with the values). 0.43% of 340,000 active. AID 504454;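 active = response above a set limit, near 3 SD of response in nonfluorescent compounds, cut at about 42% in these data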;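 also: stock transfer was 100 nL into about 11 µL; a reference agonist was the positive control; negative values mostly stem from fluorescent compounds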
Target sequence (P07550 whole entry, looked up): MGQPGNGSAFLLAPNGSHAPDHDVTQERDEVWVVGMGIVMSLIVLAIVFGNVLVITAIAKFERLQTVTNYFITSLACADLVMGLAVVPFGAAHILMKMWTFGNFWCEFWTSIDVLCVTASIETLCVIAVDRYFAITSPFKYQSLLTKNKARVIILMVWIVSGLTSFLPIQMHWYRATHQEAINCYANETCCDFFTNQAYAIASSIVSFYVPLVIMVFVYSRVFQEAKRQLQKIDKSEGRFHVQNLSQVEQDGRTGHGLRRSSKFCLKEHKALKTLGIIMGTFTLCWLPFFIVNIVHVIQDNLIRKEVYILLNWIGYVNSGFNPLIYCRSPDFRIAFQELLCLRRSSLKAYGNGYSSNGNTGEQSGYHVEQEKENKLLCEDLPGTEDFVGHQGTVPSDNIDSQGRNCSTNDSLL
HNF4A DNA FP: change in binding of human HNF4 alpha to DNA | AID 1224865 | HNF4a-FITC DNA binding, fluorescence polarization, 1 h | 0.3% of 360,000 active | P41235 | activity change, % at 10 µM; in the data active = activity change above about 30%, passing the limit was not always enough;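 also: controls were the assay level and a saturating level of protein; the project sought stronger binding though the title names inhibitors; some compounds called inactive have numbers as strong as hits; positive values seem to mean higher polarization but the record does not say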
Target sequence (P41235 whole entry, looked up): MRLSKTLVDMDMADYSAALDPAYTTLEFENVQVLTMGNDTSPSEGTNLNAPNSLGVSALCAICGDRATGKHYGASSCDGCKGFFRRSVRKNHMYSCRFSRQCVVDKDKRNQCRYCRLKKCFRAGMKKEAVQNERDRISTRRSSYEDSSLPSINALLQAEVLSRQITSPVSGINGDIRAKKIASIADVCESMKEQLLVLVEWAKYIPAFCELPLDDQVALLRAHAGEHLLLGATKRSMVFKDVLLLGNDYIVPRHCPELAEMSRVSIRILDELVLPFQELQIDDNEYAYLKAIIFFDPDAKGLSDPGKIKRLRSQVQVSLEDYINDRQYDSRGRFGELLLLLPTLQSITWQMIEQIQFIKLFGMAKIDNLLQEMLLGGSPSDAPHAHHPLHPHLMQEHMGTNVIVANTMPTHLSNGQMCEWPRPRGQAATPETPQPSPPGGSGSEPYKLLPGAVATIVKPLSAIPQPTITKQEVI
UCH37 inh: inhibitors of human deubiquitinating enzyme UCH37; purified proteasome/UCH37, Ub-AMC cleavage fluorescence; Q9Y5K5; inhibition, % (concentration not given with the values); 0.33% of 330,000 active;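 active = mean of two replicates above 20%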;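 also: 0% = compound-free wells with enzyme and 100% = wells lacking proteasome; stock transfer was 100 nL into about 20 µL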
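system = Proteasome-associated human UCH37 deubiquitinase | amount = 0.15 nM proteasome as dispensed | medium = pH 7.4 Tris-HCl (50 mM) with ovalbumin, ATP-MgCl2, DTT | incubation = 30 min preincubation with enzyme, 25 min cleavage at room temperature | detection = AMC fluorescence 355/460 nm | read-out basis = percent inhibition | controls = no-proteasome and no-compound wells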
Vif TR-FRET: HIV-1 Vif–A3G interaction blockers – biochemical, TR-FRET, GST-Vif 1-94, biotin-A3G peptide, dose response retest, primary screen (AID 1117319); TR-FRET GST-Vif / biotin-A3G peptide binding; higher % means a stronger effect; test concentration not given here; strong numbers were not always called active; 0.57% of 260,000 active; inhibition, %, or IC50 in µM where a hit was titrated;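 active = above the screen mean plus three standard deviations and confirmed in dose response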;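 also: Vif residues 1-94 fused to GST binding biotinylated APOBEC3G peptide 110-148; 0% = full assay without inhibitor and 100% = GST in place of GST-Vif; retest series ran down from 100 µM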
LANA-H2A inh: blocks KSHV LANA binding to histone H2A/H2B. Q9QR71. cell-free LANA-H2A/H2B peptide, fluorescence polarization. inhibition, % (no concentration beside the values). 0.6% of 320,000 active; in the data active = inhibition mostly above about 10%, no sharp cut-off; inactive = mostly below about 6.7%;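 also: stock transfer was 7.5 nL into about 10 µL; 0% = median of vehicle wells and 100% = median of positive control wells; one replicate is shown; the record names a cut of 25% in any replicate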
Ecoli growth: blocks Escherichia coli growth; OD600, 23 h; hits give low values; OD600 absorbance (test concentration not listed); 0.21% of 330,000 active; AID 1053175;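 active = OD600 absorbance below the run mean of sample wells minus 3.6 SD, in any replicate, cut at about 0.56 in these data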;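 also: stock transfer was 300 nL into about 60 µL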
* = called active by the depositor; . = not tested or not shown; & = joins results of further samples.

Each structure is followed by: A1 inh	Beta2AR agonist	HNF4A DNA FP	UCH37 inh	Vif TR-FRET	LANA-H2A inh	Ecoli growth
COc1ccccc1C(=O)NCC(=O)OC(C)C(=O)N(C)C1CCCCC1 (stereo not drawn)
→ 0.8	-6	2.8	2.1	-3%	19*	0.69
O=C(CNS(=O)(=O)c1ccccc1)N1CCN(c2ccccc2)CC1
→ 0.7	27	3.1	2.5	17%	0.7	0.72
Cn1c(=S)[nH]c(=O)c2ncc(=O)[nH]c21
→ 1.2	4	-1.0	16	10%	5.1	0.7
O=C(CSc1cn(Cc2ccccc2)c2ccccc12)N1CCOCC1
→ 0.0	26	-0.9	2.6	-2%	1.6	0.8
COc1ccc(NS(=O)(=O)c2cccc(C(=O)N3CCN(C(=O)c4ccco4)CC3)c2)cc1
→ -1.4	7	-0.1	4.4	.	5.0	0.65
CCOc1ccc(Br)cc1S(=O)(=O)Nc1ccc(C(=O)OC(C)C(=O)N(C)c2ccccc2)cc1 (stereo not drawn)
→ 0.1	3	-2.9	2.5	.	2.4	0.74
COc1cc(NS(=O)(=O)c2ccc(NC(=O)NC3CCCCC3)cc2)nc(OC)n1
→ -0.7	6	2.8	5.6	0%	1.6	0.75
O=C(Nc1ccon1)c1sc2cc(Cl)ccc2c1Cl
→ 0.0	1	0.4	2.6	.	-3.8	0.68
CCC(C)(C(=O)NC1CCCCC1)N(Cc1ccco1)C(=O)c1cnccn1 (stereo not drawn)
→ 0.9	3	2.0	2.5	-4%	0.4	0.67
CCN(CC)S(=O)(=O)c1ccc(NC(=O)CSc2cccc[n+]2[O-])cc1
→ -0.6	2	2.5	3.4	14%	2.9	0.61
CS/C(=C(/C#N)S(=O)(=O)c1ccc(Cl)cc1)N1CCOCC1
→ 0.3	6	7.8	5.3	5%	2.1	0.63
Cc1cc(C)n(CCOc2ccc(Br)cc2)n1
→ 0.1	4	1.5	4.1	-18%	3.0	0.67
O=C(/C=C\c1ccco1)c1ccc(NC(=O)c2ccco2)cc1
→ -0.7	-2	-7.2	3.4	.	1.7	0.61
Cc1ccc(NC(=O)C2CCN(c3ncnc4sc(C)c(C)c34)CC2)cc1S(=O)(=O)N(C)C
→ 0.2	8	-2.8	4.0	2%	-3.9	0.64
CC(C)CCN(C(=O)c1cn2ccccc2n1)c1c(N)n(Cc2ccccc2)c(=O)[nH]c1=O
→ .	0	4.5	-2.4	-2%	.	0.66

Records listed above printed as active in LANA-H2A inh.
SMILES	Beta2AR agonist	HNF4A DNA FP	UCH37 inh	Vif TR-FRET	LANA-H2A inh	Ecoli growth
COc1ccccc1C(=O)NCC(=O)OC(C)C(=O)N(C)C1CCCCC1 (stereo not drawn)	-6	2.8	2.1	-3%	19*	0.69

Continuation:
Each structure is followed by: A1 inh	Beta2AR agonist	HNF4A DNA FP	UCH37 inh	Vif TR-FRET	LANA-H2A inh	Ecoli growth
C=CCn1c(SCC(=O)Nc2nncs2)nnc1-c1ccco1
→ -0.1	1	0.4	5.2	.	6.4	0.7
O=C(NC1CCS(=O)(=O)C1)c1ccc(S(=O)(=O)NCC2CCCO2)cc1 (stereo not drawn)
→ 0.4	1	-0.9	2.1	7%	5.9	0.74
Cn1c(N)c(C(=O)COC(=O)c2cc(C3CC3)nc3ccccc23)c(=O)n(Cc2ccccc2)c1=O
→ -0.7	7	20	4.8	32%	3.5	0.71
CC(C)N(C(=O)[C@H]1C[C@H](CC(=O)NCc2cccc(C(F)(F)F)c2)C(=O)N2CCc3c([nH]c4cc(CCC(=O)N(C)C)ccc34)[C@]12C)C(C)C
→ .	-5	1.6	2.6	-4%	.	0.72
Cc1cc(NC(=O)/C=C\C(=O)O)c([N+](=O)[O-])cc1C
→ 1.7	-2	4.7	7.3	-3%	-1.9	0.66
Cc1cc(C(=O)N2CCOCC2)c(C)o1
→ 0.6	-1	1.4	3.3	-7%	-2.5	0.71
O=C(CCCCn1c(=O)c2ccccc2n(CC(=O)Nc2cccc(F)c2)c1=O)NCc1ccco1
→ -0.6	2	-1.7	1.9	-1%&-3%	-1.6	0.81
COc1ccc(N2CCN(C(=O)Cn3ncc4c([nH]c5ccccc54)c3=O)CC2)cc1
→ 1.3	0	-0.6	-0.7	-4%	8.5	0.66
CCOCCCNC(=O)C1CCN(S(=O)(=O)N2CCCC2)CC1
→ 1.8	2	5.5	-3.5	7%	0.5	0.67
CN(C)c1ncc(S(=O)(=O)c2ccccc2)c(-c2ccc(Cl)cc2Cl)n1
→ 0.4	-67	-3.4	.	5%	1.0	.
CC(=O)c1n[nH]nc1Nc1nc(C)cc(C)n1
→ 0.4	0	-1.8	3.9	6%&-3%	-2.6	0.68
CC12CCC(C(=O)N(NC(=O)c3ccc(O)cc3)C1=O)C2(C)C (stereo not drawn)
→ -0.4	6	7.4	1.6	1%	4.8	0.62
O=C(Cc1ccccc1)Nc1ccccc1C(=O)Nc1ccccc1
→ -0.5	16	0.2	1.5	9%	-3.4	0.69
CCCc1noc2c1/C(=N\O)CC(CC(C)SCC)C2 (stereo not drawn)
→ -0.3	5	1.5	.	3%	0.3	.
COC(=O)NCC(c1ccco1)N1CCN(c2ccc(OC)cc2)CC1 (stereo not drawn)
→ 0.0	-2	-5.6	2.9	-4%	3.5	0.72
CNc1ccc2c3c(cccc13)C(=O)N(C)C2=O
→ 0.9	-4	-91	.	-9%	88*	.
CCc1ccccc1N1CCN(S(=O)(=O)c2cc(OC)ccc2OC)CC1
→ 0.3	-1	1.4	2.8	-6%	-1.2	0.66
Cc1ccc(CNC(=O)c2ccc(OCC3CCCO3)cc2)cc1 (stereo not drawn)
→ 0.4	3	0.3	-0.5	.	-0.7	0.67
CCOc1ccc(NC(=O)NCCCN2CCCC2)cc1
→ 1.4	0	-4.7	-0.2	3%	-0.8	0.72
CCOC(=O)c1ccc(NC(=O)c2cccnc2)cc1
→ -1.1	10	1.4	2.0	.	-0.6	0.64
Cc1cnc(C(=O)OCC(=O)Nc2ccc(Cl)cc2)cn1
→ 1.0	2	2.3	5.1	-5%	-0.3	0.64
C=CCNC(=O)/C(C#N)=C/c1ccccc1Cl
→ -0.4	8	2.1	1.1	6%	-0.4	0.62
C/C(=N\Nc1ccc(Cl)c(C(=O)O)c1)c1cccc([N+](=O)[O-])c1
→ -4.0	-1	-7.8	.	.	-3.9	.
Cc1cccc(C)c1NC(=O)Cn1nnc(C(=O)Nc2ccc(F)cc2F)c1N
→ -0.2	1	-6.8	-0.6	.	2.3	0.71
O=C(CCSc1ccc(Cl)cc1)N1CCN(c2ncccn2)CC1
→ 0.3	-2	-0.3	0.2	-5%	-5.1	0.69
CC(C)CN(CCC(=O)O)CC(C)C
→ 0.5	-3	0.4	2.7	1%	1.2	0.7
CCC(=O)N1C(=O)C2(Nc3ccccc3N2)c2ccccc21
→ 0.6	.	.	3.0	7%	1.2	0.69
CCOC(=O)c1ccc(NC2c3ncccc3C(=O)N2Cc2ccc(F)cc2)cc1 (stereo not drawn)
→ -0.8	-7	1.1	5.3	12%	-0.8	0.64
CCn1c(SCC#N)nc2cc(S(=O)(=O)N3CCOCC3)ccc21
→ 0.2	-2	1.0	-1.4	.	-1.2	0.66
O=C(O)CNC(=O)CC1S/C(=N/N=C2/NC(=O)CS2)NC1=O (stereo not drawn)
→ 0.8	1	21	6.0	-9%	1.6	0.72
COc1ccc(C2CC(Cn3cc(C#N)c(=O)n(C)c3=O)ON2C)cc1 (stereo not drawn)
→ 0.3	-1	0.9	0.3	-1%	-3.4	0.72
C=Cn1cc[n+](CC(=O)c2cccs2)c1
→ 0.5	-2	1.2	4.2	5%	0.5	0.67
Cc1ccc(C(=O)NC(=S)NCc2cccnc2)cc1
→ -0.2	-12	1.1	4.3	.	-3.0	0.66
COc1ccccc1NC1=Nc2cccc3cccc1c23
→ 0.9	1	7.8	4.0	5%	-1.9	0.67
N/C(=N\OC(=O)CCCOc1ccccc1)c1ccccc1
→ 0.1	0	-2.0	0.4	-5%	-9.9	0.71
C/C(=N/NC(=O)c1ccncc1)c1ccc(NC(=O)c2ccc(Cl)cc2Cl)cc1
→ 0.1	3	0.6	.	2%	-2.2	.
O=C(NCCN1CCCC1=O)Nc1ccccc1
→ 0.0	3	-1.8	-1.5	0%	1.3	0.7
O=C(CN1CCN(c2ccc(Cl)cc2)CC1)Nc1ccc(F)c(F)c1
→ 0.2	7	1.5	0.9	1%	-0.5	0.76
Cc1nc(Nc2nc(CSc3ccc(Cl)cc3)cc(=O)[nH]2)nc2ccccc12
→ 0.3	-12	0.5	-0.1	.	-7.5	0.7
CCC(Sc1nc(C)cc(C)n1)C(=O)Nc1nccs1 (stereo not drawn)
→ 0.4	1	-4.0	-3.5	.	-2.5	0.72
COc1ccccc1NC(=O)CSc1nnc(CCNC(=O)c2ccc(C)cc2)n1C
→ 0.9	0	-4.5	0.0	.	5.4	0.66
O=C(c1ccco1)N1CCN(C(=O)C2CCCc3c2[nH]c2ccc(Cl)cc32)CC1 (stereo not drawn)
→ 0.2	3	1.0	1.1	-4%	-4.5	0.7
CNC(=O)c1c(NC(=O)c2ccc(N3C(=O)CCC3=O)cc2)sc2c1CCC(C)C2 (stereo not drawn)
→ -0.1	10	-4.2	5.1	2%	-3.0	0.71
Nc1c(C(=O)N/N=C/c2ccc([N+](=O)[O-])cc2)cnn1-c1ccccc1
→ 0.7	1	3.5	.	6%	4.3	.
Nc1c(Cl)ncnc1N/N=C/c1cccc(O)c1
→ -5.1	3	7.2	.	32%	-2.1	.
CCn1c(SCC(=O)Nc2cccc(C)n2)nc2c1c(=O)n(C)c(=O)n2C
→ 0.2	-8	0.2	1.7	.	7.2	0.67
Cc1onc(-c2c(Cl)cccc2Cl)c1NC(=O)NNc1ccccc1
→ 1.5	4	1.9	-0.6	-1%	-2.2	0.69
Cc1cccc(N2C(=O)N(c3ccccc3C)C3CS(=O)(=O)CC32)c1 (stereo not drawn)
→ 0.1	5	-4.4	1.8	8%	0.2	0.74
O=C(O)C1C(C(=O)O)C1(c1ccccc1)c1ccccc1 (stereo not drawn)
→ -0.5	-6	1.2	4.1	32%	-1.9	0.73
Cc1occc1-c1nnc(SCC(=O)NCc2cccs2)n1CC1CCCO1 (stereo not drawn)
→ .	1	1.9	0.7	-3%	.	0.72

Some values from the results shown:
Reading for Cc1occc1-c1nnc(SCC(=O)NCc2cccs2)n1CC1CCCO1 (stereo not drawn) under HNF4A DNA FP: 1.9
Reading for CCn1c(SCC(=O)Nc2cccc(C)n2)nc2c1c(=O)n(C)c(=O)n2C under Beta2AR agonist: -8
Reading for Cc1cccc(N2C(=O)N(c3ccccc3C)C3CS(=O)(=O)CC32)c1 (stereo not drawn) under UCH37 inh: 1.8
